Assay outcomes as filed in PubChem.
TRPML1 agonist – activates the human TRPML1 channel | Q9GZU1 | TRPML1-expressing cells, Ca2+ dye fluorescence, FDSS; host cell line not named in the record; reference of the full effect not given here | activation, % (no concentration beside the values) | 410,000 compounds, 0.12% hits | AID 624414; in the data active = activation above about 50%; inconclusive = about 30% to 50%; inactive = below about 30%; also: 0% is about no effect; the text of the record puts the active cut at 80%
Target sequence (Q9GZU1 whole entry, looked up): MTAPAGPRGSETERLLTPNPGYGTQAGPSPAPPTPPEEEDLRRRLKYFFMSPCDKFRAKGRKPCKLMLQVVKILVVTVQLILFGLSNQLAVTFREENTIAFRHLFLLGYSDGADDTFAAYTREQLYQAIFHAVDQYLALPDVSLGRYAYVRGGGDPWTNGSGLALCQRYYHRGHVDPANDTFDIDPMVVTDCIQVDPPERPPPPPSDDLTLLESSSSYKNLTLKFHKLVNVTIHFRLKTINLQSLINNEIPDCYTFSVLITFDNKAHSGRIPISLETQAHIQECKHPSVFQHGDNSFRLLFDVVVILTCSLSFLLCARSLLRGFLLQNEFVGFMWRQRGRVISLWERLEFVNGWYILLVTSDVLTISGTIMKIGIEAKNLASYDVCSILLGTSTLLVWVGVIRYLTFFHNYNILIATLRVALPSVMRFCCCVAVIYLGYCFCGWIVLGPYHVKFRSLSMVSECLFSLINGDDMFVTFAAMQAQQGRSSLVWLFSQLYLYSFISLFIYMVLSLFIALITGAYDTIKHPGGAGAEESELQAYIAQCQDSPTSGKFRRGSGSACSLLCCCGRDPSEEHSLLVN
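Agonist activity was taken from a 110 s kinetic Ca2+ dye read on the FDSS after pinning compounds onto TRPML1-DL cells. The cells were seeded at 1,500/well with Tet inducer, incubated about 16 h, then dye-loaded at room temperature.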
D2 ag – agonists of human D2 dopamine receptor (beta-arrestin); P14416; DiscoveRx PathHunter D2 beta-arrestin, luminescence, 90 min; 100% = 57 uM dopamine signal; activation, % (concentration not given with the values); 360,000 compounds, 0.084% hits; in the data active = activation above about 40%; inconclusive = about 15% to 40%; inactive = below about 15%; also: the text of the record calls up to 30% inactive
Target sequence (P14416 whole entry, looked up): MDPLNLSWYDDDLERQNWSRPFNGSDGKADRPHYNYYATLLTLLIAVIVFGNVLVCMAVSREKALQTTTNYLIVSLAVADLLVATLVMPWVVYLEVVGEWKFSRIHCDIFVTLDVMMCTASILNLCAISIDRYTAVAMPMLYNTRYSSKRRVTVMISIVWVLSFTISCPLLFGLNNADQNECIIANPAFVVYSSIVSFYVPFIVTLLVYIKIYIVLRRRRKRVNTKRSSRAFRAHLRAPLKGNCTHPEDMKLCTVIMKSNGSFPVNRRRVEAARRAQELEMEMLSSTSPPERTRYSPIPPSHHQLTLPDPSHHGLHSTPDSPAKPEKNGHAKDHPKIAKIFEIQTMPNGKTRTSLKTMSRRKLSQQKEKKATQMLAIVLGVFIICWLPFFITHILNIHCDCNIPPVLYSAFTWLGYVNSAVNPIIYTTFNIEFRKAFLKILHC
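DiscoveRx PathHunter D2 beta-arrestin cells (2,100/well) attached overnight, then compound-stimulated 90 min at 37 C in HBSS/10 mM HEPES/0.1% Tween-20 buffer; beta-galactosidase complementation read by luminescence after 1 h at ambient temperature. Dopamine 57 uM final (EC100) as control.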
Six1-Eya2 blk – Six1/Eya2 interaction inhibition. Q15475+O00167. AlphaScreen GST-Six1/His-Eya2 binding, biochemical; hits give low values; control for the full effect not named in the record. activity change, % (concentration not given with the values). 360,000 compounds, 0.56% hits; in the data active = activity change below about -65%; inconclusive = about -30% to -65%; inactive = above about -30%; also: % is scaled to controls: 0 for no effect and ±100 for the full control effect
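Compounds are tested against tagged Six1 and Eya2 proteins bridged by glutathione donor and nickel acceptor beads; after a one-hour incubation at 37 °C without light, AlphaScreen emission is recorded.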
PINK1 modulator – PINK1 expression modulation; PINK1 immunofluorescence, high-content cytometry, 24 h; 410,000 compounds, 0.2% hits; Potency, µM (highest dose often 76.6 µM), for the others: top-dose activation (PINK1 increase), usual class: activators; AID 624263; active = well fitted activation curve with a large enough effect; inconclusive = small, poorly fitted or top-dose-only effect; inactive = flat fitted curve, though single readings scatter; cell line not stated here;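 also: potency is read from the fitted curve at half-maximal effect; % of control where 0% means no effect; nearly all actives have a fitted effect of over 65% in size; a mitochondrial uncoupler was the plate control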
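Readout is PINK1 immunofluorescence, quantified alongside mitochondrial, cell and nuclear markers by laser-scanning microplate cytometry. Cells from a stable line were exposed to compound titrations (5 concentrations) for 24 hours, with CCCP controls.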
D2 potentiator – human D2 receptor positive allosteric modulation. potentiation, % (concentration not given with the values). DiscoveRx D2 beta-arrestin cells, luminescence, 90 min; 100% = 57 uM dopamine signal. P14416. AID 624464. 360,000 compounds, 0.23% hits; active = potentiation of 50% or more; inconclusive = 30% to 50%; inactive = 30% or less;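 also: tested on top of an EC20 dose of dopamine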
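PathHunter beta-arrestin assay in DiscoveRx D2 cells. Compounds were added with an EC20 of dopamine (50 nM final) for 90 min at 37 deg C. Luminescence was read 1 h after detection reagent, with 57 uM dopamine as the EC100 control.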
CtBP-E1A blk – CtBP/E1A binding inhibition; AlphaScreen GST-E1A/His-CtBP binding, 1536-well; hits give low values; control for the full effect not named in the record; activity change, % (concentration not given with the values); AID 651724; 340,000 compounds, 0.49% hits; in the data active means activity change below about -65%; inconclusive means about -30% to -65%; inactive means above about -30%; also: % is scaled to controls: 0 for no effect and ±100 for the full control effect
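AlphaScreen with 125 nM GST-E1A and 125 nM His-CtBP (5X stocks) in Tris pH 8.0, 300 mM NaCl, BSA, Tween 20, TCEP. Compounds preincubated 2 h at 37 deg C, then glutathione donor/nickel acceptor beads added for 1 h at 37 deg C in dark.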
* marks the source's active call; other numbers are inactive results; ? = inconclusive; . = not tested or not shown; [ ] = dose if it differs, or a comment. Random draw from the library; 1.3% or so of the library scored in one or more.

SMILES | TRPML1 agonist | D2 ag | Six1-Eya2 blk | PINK1 modulator | D2 potentiator | CtBP-E1A blk
CC1CCc2sc(C(=O)NC3CCN(Cc4ccccc4)CC3)cc2C1 (configuration not stated) | -0.2 | -1.9 | -9.1 | 5.6% | -6.0 | -8.9
COc1ccc(C(=O)CSc2nnc(CNC(=O)c3ccco3)n2C)cc1 | -0.4 | -0.1 | -0.4 | -2.6% | 0.1 | 3.9
O=S(=O)(Nc1cccc(Cl)c1)c1cccc(-n2cnnn2)c1 | -0.1 | -0.7 | 6.7 | 0.0% | 3.2 | -1.2
COc1ccc(OC)c(C(=O)c2ccc(C(=O)Nc3ccccc3)cc2)c1 | -0.4 | -1.1 | 11.1 | 1.4% | -21.4 | 1.6
CCCCn1c(N)c(NCc2ccccc2OC)c(=O)[nH]c1=O | 0.6 | 0.7 | -5.4 | 1.7% | -3.4 | -8.4
Cc1ccccc1OCC(=O)NC1=NCCS1 | -0.7 | -1.1 | 2.8 | 1.1% | -5.7 | 7.3
O=C(COC(=O)Cc1cccs1)NCC(=O)Nc1ccc(F)cc1 | -0.4 | -0.5 | 1.4 | -0.2% | -1.3 | 7.2
O=C(COC(=O)C12CC3CC(CC(O)(C3)C1)C2)Nc1ccc(Cl)cc1F | -0.3 | 1.0 | 6.2 | 2.7% | -2.4 | .
COc1cccc(NC(C)=[N+](C)CCNS(=O)(=O)c2ccc(Cl)cc2)c1 | -0.3 | -2.8 | -0.2 | 0.5% | -7.8 | -9.6
Cc1ccc(OCc2nc(C#N)c(N3CCCC3)o2)cc1 | 1.4 | -0.7 | -23.0 | 0.1% | -1.7 | ?
Cc1cc(OCCCCOc2ccc(S(N)(=O)=O)c(C)c2)ccc1S(N)(=O)=O | 0.3 | 3.8 | 3.2 | 1.6% | 0.3 | .
Cc1ccccc1-n1nnnc1SCC(=O)NCC1(N2CCOCC2)CCCCC1 | 0.0 | -4.9 | -1.7 | -0.9% | -5.8 | -3.5
O=C1c2ccccc2C(=O)N1CCn1ccnc1 | 0.5 | -0.6 | 6.5 | 0.7% | -5.1 | 11.4
Cc1cc(Nc2ccc(Br)cc2)nc(-c2ccccc2O)n1 | -0.1 | 1.4 | 6.9 | 13.0% | 2.9 | 10.3
O=C(Nc1cccc(-c2cn3ccsc3n2)c1)c1ccccc1 | 0.8 | 1.3 | -21.9 | 4.9% | -19.5 | -18.8
CS(=O)(=O)c1ccccc1C(=O)Nc1cccc2ncccc12 | 0.3 | -1.4 | -6.8 | 8.1% | 1.4 | -12.0
Cc1ccc(OCCOCCn2ccnc2)c(Br)c1 | -0.7 | 0.0 | -4.6 | -1.1% | 12.1 | 4.6
CCCOc1ccc(C(=O)NCCC(=O)NCCCC(=O)O)cc1 | 0.6 | -1.7 | 15.8 | 0.4% | 1.4 | 0.3
O=C(NNC(=O)C12CC3CC(CC(Br)(C3)C1)C2)c1ccccc1F | -0.1 | -6.4 | 2.6 | 0.1% | 0.1 | 7.0
CCNC(=O)C1(C)CCN(C(=O)c2ccccc2OC(F)(F)F)C1 (configuration not stated) | -0.2 | -5.4 | 17.9 | 0.7% | -8.0 | 20.5
c1ccc(CN2CCN(c3ncccn3)CC2)cc1 | 0.4 | 55.5* | -9.9 | 0.8% | ? | 0.0
COC(=O)c1ccc2c(=O)n(Cc3ccc4c(c3)OCO4)c(=S)[nH]c2c1 | 1.0 | -7.1 | 9.6 | 5.8% | -9.5 | .
CCOc1ccc(N(C)S(=O)(=O)c2ccc3[nH]cc(C(=O)NCCOC)c(=O)c3c2)cc1 | -1.3 | -0.2 | -13.5 | 1.7% | 18.0 | -5.7
Cc1ccc(S(=O)(=O)Nc2ccc(Nc3nccn4c(-c5cccc(OC(F)(F)F)c5)cnc34)cc2)cc1 | -0.2 | 3.0 | 1.1 | 10.5% | -0.1 | 2.5
CCOc1ccc(S(=O)(=O)N2CCOCC2)cc1NC(=O)Cc1c(F)cccc1Cl | 1.5 | -2.6 | -5.7 | 19.5% | -4.4 | -0.2

The list goes on, starting with the last 2 of the part before.
SMILES | TRPML1 agonist | D2 ag | Six1-Eya2 blk | PINK1 modulator | D2 potentiator | CtBP-E1A blk
Cc1ccc(S(=O)(=O)Nc2ccc(Nc3nccn4c(-c5cccc(OC(F)(F)F)c5)cnc34)cc2)cc1 | -0.2 | 3.0 | 1.1 | 10.5% | -0.1 | 2.5
CCOc1ccc(S(=O)(=O)N2CCOCC2)cc1NC(=O)Cc1c(F)cccc1Cl | 1.5 | -2.6 | -5.7 | 19.5% | -4.4 | -0.2
CC(=O)OCC(=O)C1(O)CCC2C3CCC4=CC(=O)CCC4(C)C3(F)C(O)CC21C (configuration not stated) | 0.8 | -2.1 | -0.9 | 1.4% | -26.3 | -2.6
CCS(=O)(=O)N1CCC(C(=O)NCc2ccc(OC)cc2OC)CC1 | 0.4 | 3.0 | -1.3 | -1.6% | -7.4 | .
COc1cc(/C=N/NC(=S)Nc2cccc(C(=O)O)c2)cc(OC)c1OC | 0.9 | 1.7 | -22.3 | 2.9% | 4.7 | -23.0
Fc1cccc(NC(=S)Nc2cccc3ccccc23)c1 | 1.2 | -10.8 | -9.2 | 0.7% | -14.1 | -8.6
COc1ccc2nc3n(c(=O)c2c1)-c1ccc(Cl)cc1C(=O)NC3Cc1ccc(O)cc1 (configuration not stated) | -0.8 | -1.2 | -7.0 | 2.7% | -2.2 | -20.2
CCCCCc1cc(=O)oc2c(C(CCN3CCCC3)c3ccc(N(C)C)cc3)c(OC)cc(OC)c12 (configuration not stated) | -0.7 | 3.0 | ? | -1.0% | -21.0 | ?
COCCCNc1c2c3c(cccc3[nH]c1=O)C(=O)c1ccccc1-2 | 112.6* | 9.6 | ? | 6.9% | 14.4 | ?
Cn1c2ccccc2n2c(=O)cc(-c3ccccc3)c(C#N)c12 | -0.5 | -4.8 | 11.8 | 5.7% | -5.9 | 1.2
CCOC(=O)C1CCCN(c2c(NCCCN(C)c3ccccc3)c(=O)c2=O)C1 (configuration not stated) | -0.8 | -1.1 | -2.1 | 2.4% | -3.3 | -0.2
CN(CC(=O)Nc1cccc(C#N)c1)Cc1ccc(Cl)cc1 | 4.0 | 2.6 | 2.8 | -1.8% | -30.8 | 6.1
O=C1CC(C(=O)Nc2ccc(Br)cc2)S/C(=N\N=C\c2ccco2)N1 (configuration not stated) | 0.4 | -2.9 | -7.9 | 15.4% | -4.3 | -1.2
COc1ccccc1CC(=O)N1CCN(c2ccccn2)CC1 | 0.4 | -2.0 | 7.2 | -1.2% | -8.1 | 0.0
O=C1NC(=S)N(C(=O)c2ccc(F)cc2)/C1=C/c1ccccc1 | 8.1 | -4.1 | -3.5 | ? | 2.7 | 19.7
COCCN(CC1CCCN(C2Cc3ccccc3C2)C1)C(=O)CCC(F)(F)F (configuration not stated) | 0.9 | -1.8 | 0.0 | 1.9% | -1.4 | 5.1
CCOc1ccc(S(=O)(=O)N2CCCC(C(=O)NCc3ccco3)C2)cc1 (configuration not stated) | -0.2 | -1.6 | -0.1 | 0.7% | -1.9 | 0.1
N#Cc1nc(COc2cccc(Cl)c2)oc1N1CCCC1 | 0.8 | -2.6 | -23.7 | 3.6% | -4.1 | -19.4
CCOc1ccccc1N/C=C(\C#N)c1nc2ccccc2n1C | 1.4 | 0.9 | -0.3 | 21.4%[38.3 µM] | 3.5 | 5.3
COc1ccc(C(=O)NNC(=O)OC(C)(C)C)cc1 | . | -1.9 | 4.4 | 0.8% | -1.4 | 5.5
Cc1noc(C)c1S(=O)(=O)N(C)C[C@H]1Oc2ccc(NC(=O)Cn3cnnn3)cc2C(=O)N([C@H](C)CO)C[C@@H]1C | -0.1 | -3.4 | 0.8 | 0.1% | -4.9 | 9.1
CC(C)CC(c1nnnn1Cc1ccc2c(c1)OCO2)N1CCC(C(N)=O)CC1 (configuration not stated) | 0.3 | 3.6 | 2.4 | ? | -2.1 | 3.5
C=CCn1c(=O)c2ccccc2n2c(SCC(=O)Nc3sc(C)c(CC)c3C(=O)OCC)nnc12 | -0.3 | -3.8 | 9.4 | -0.4% | 3.4 | 14.3
CCCC(=O)OCC(=O)Nc1cc(Cl)ccc1[N+](=O)[O-] | 0.6 | 11.2 | -26.9 | 0.1% | 3.0 | -18.9
CC1CC(=O)c2ccccc2C1C (configuration not stated) | 0.7 | 3.3 | -2.8 | -1.0% | 3.1 | -9.4
Cc1cc(C)c2c(=O)n3c(nc2c1)C(CC(C)C)NC(=O)c1cccnc1-3 (configuration not stated) | 0.1 | -3.5 | -0.5 | -0.8% | -5.7 | -5.8
O=C(N/N=C/c1cccs1)c1c[nH]c2ccccc12 | -0.8 | -3.5 | -5.3 | -0.3% | -24.9 | -7.2
(continued)
SMILES | TRPML1 agonist | D2 ag | Six1-Eya2 blk | PINK1 modulator | D2 potentiator | CtBP-E1A blk
CCN1CCN(c2nc3c(c(=O)[nH]c(=O)n3C)n2CCCc2ccccc2)CC1 | -0.1 | -4.7 | 3.6 | 3.4% | -12.8 | .
CCCCn1c(SCC(=O)NC(=O)Cc2ccccc2)nc2ccccc2c1=O | 3.6 | -0.1 | -1.4 | 4.6% | -0.8 | -17.1
FC(F)Oc1ccc(NC(=S)Nc2ccc3cn[nH]c3c2)cc1 | 0.7 | 2.1 | 0.2 | 0.9% | 1.2 | -6.2
COc1ccc(C/C(N)=N/OC(=O)c2ccc(Cl)cc2)cc1 | 1.8 | 10.3 | 16.1 | 3.8% | 6.5 | 3.8
Cc1cc(C)n2nc(-c3ccco3)nc2n1 | 0.2 | -2.2 | -15.3 | -0.2% | -16.5 | -8.5
CCOC(=O)CC1ON(C)C(=O)N1c1ccc([N+](=O)[O-])cc1 (configuration not stated) | 0.2 | 1.4 | -2.3 | 1.5% | -1.3 | -4.6
Cn1c(N)c(C#N)c(C#N)c1-c1ccccc1 | 2.0 | -2.9 | -5.0 | -1.5% | -4.3 | -3.7
Cc1ccc(S(=O)(=O)N2CCN(C(=O)COC(=O)/C=C/c3ccccc3[N+](=O)[O-])CC2)c(C)c1 | 1.2 | 3.2 | -0.3 | -3.5% | -2.2 | -23.7
O=c1/c(=C/c2ccco2)sc2nc(-c3ccccc3Br)nn12 | -0.3 | -1.1 | -8.6 | -0.2% | -17.7 | -3.6
Cc1cc(Nc2ccc(Cl)cc2)nc(NCc2ccccc2)n1 | 1.4 | 9.2 | 4.5 | -2.6% | -11.3 | 0.3
CCCCCC(=O)NC(=S)Nc1cccc(-c2nc3ncccc3o2)c1 | -0.8 | -2.2 | -7.5 | 16.5% | -4.1 | -5.8
O=[N+]([O-])c1ccccc1S(=O)(=O)N1CCN(Cc2ccc3c(c2)OCO3)CC1 | -0.7 | -1.7 | -10.3 | 0.1% | -9.8 | .
Cc1ccc(O)c(CCc2ccc(O)cc2)n1 | 0.2 | -5.8 | 3.5 | 1.2% | -2.2 | 1.1
CC(C)NC(=O)C12CC3CC(C1)CC(n1cnc(Cl)n1)(C3)C2 | -0.5 | -1.4 | 5.1 | 1.2% | -3.5 | 1.0
CCCN(CC1CC1)C(=S)NC(=O)c1ccccc1Br | 0.3 | -2.8 | -2.8 | -0.6% | -5.6 | 3.5
O=C(NCCN1CCNC1=O)C1CCC(=O)N(CCc2ccccc2)C1 (configuration not stated) | 0.3 | -4.1 | 2.0 | 0.7% | 1.3 | 16.9
